CtBP-E1A inh – CtBP/E1A binding inhibition. AlphaScreen GST-E1A/His-CtBP binding, 1536-well; stronger effect = lower value; control for the full effect not named in the record. activity change, % (no concentration beside the values). hit rate 0.49% among 340,000. AID 651724; in the data active means activity change below about -65%; inconclusive means about -30% to -65%; inactive means above about -30%; further: on the % scale 0 is the no-effect control and ±100 the full control effect; compound concentration not given in the record
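GST-E1A and His-tagged CtBP (125 nM each as 5X stock) were preincubated with pin-transferred compound for 2 h at 37 °C in the dark, then glutathione donor and nickel acceptor beads were added for 1 h before AlphaScreen reading.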
ClpP mod – qHTS Assay for Activators of ClpP; hit rate 1.9% among 340,000; purified B. subtilis ClpP, FRET peptide cleavage, 20 min; Potency, µM (highest dose often 57.5 µM), for the others: at the top dose activity change, negative = active; ATP-dependent Clp protease proteolytic subunit (Bacillus subtilis (strain 168)), P80244; AID 651965, 2013; active = well fitted falling curve with a large enough effect; inconclusive = small, poorly fitted or top-dose-only effect; inactive = no such curve, though single readings can be large or run the other way; further: potency means the concentration at half of the fitted maximal effect; the source files actives as falling curves though it sought activators and does not explain the sign; nearly all actives have a fitted effect of over 65% in size; many hits overshoot -100%
Target sequence (P80244 whole entry, looked up): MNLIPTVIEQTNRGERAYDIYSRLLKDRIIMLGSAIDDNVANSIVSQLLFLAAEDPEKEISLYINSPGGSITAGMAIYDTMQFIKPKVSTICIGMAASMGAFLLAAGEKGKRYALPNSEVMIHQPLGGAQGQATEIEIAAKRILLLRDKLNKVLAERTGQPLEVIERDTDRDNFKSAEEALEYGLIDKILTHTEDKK
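ClpP 10 microg/mL final, pH 8 Tris/KCl buffer with BSA, glycerol, Tween-20; compound pinned in; FRET-FV substrate; RT 20 min; Ex320/Em430; ΔFRET vs ADEP 5.8 microM, DMSO, no enzyme.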
TRPV1 PAM – enhances activation of the human vanilloid receptor TRPV1; AID 540277; potentiation, % at 8.33 µM; TRPV1-expressing cells, Fluo-8 calcium influx, capsaicin EC20 potentiation; host cell line not named in the record; control for the full effect not named in the record; hit rate 0.02% among 320,000; active means potentiation above 80%; inconclusive means 30% to 80%; inactive means below 30%; further: 0% is about no effect
Target sequence (Q8NER1 whole entry, looked up): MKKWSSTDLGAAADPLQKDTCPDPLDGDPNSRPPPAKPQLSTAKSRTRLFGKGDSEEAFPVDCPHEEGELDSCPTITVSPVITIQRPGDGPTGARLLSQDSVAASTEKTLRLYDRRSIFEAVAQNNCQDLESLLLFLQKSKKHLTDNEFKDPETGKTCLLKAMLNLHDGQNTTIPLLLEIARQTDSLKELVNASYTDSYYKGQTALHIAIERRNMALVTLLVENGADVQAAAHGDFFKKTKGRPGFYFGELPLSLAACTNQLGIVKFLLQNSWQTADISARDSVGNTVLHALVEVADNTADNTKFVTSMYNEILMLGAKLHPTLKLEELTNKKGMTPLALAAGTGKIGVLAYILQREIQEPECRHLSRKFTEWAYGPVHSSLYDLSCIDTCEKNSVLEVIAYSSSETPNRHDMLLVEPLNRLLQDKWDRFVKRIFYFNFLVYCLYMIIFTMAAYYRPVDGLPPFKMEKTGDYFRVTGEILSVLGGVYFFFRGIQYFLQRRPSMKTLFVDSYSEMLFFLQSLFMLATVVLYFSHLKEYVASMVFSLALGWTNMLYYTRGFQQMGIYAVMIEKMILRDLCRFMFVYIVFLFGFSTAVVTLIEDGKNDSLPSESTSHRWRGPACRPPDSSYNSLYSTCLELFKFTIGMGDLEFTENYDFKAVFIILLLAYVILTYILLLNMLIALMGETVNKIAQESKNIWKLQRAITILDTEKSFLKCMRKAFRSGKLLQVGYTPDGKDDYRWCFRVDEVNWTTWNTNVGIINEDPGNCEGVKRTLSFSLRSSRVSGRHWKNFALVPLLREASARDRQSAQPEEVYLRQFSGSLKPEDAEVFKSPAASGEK
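TRPV1-expressing cells were cultured overnight at 35.5C and loaded with Fluo-8 calcium dye for 40 to 90 min at room temperature. After a 10 s baseline, compound was added and calcium influx was read kinetically for 3 min (ex 480/em 520 nm).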
* hit, by the source's call; & = joins results of further samples. These rows are one share of the data (hit frequency here may not be typical).

The first three entries as a preview:
What do the screens show for `COC(=O)C(Cc1c[nH]c2ccccc12)NC(=O)COc1ccc(Cl)cc1Cl` (stereo unspecified)?
ClpP mod: -1.0%; TRPV1 PAM: 0

Results for COC(=O)c1ccccc1NC(=O)CSc1nc2sc3c(c2c(=O)[nH]1)CCCC3 ?
ClpP mod: -1.1%; TRPV1 PAM: 12

How did COc1ccccc1N1CCN(CC(O)COc2ccc(C)cc2C(C)(C)C)CC1 (stereo unspecified) do in these assays?
ClpP mod: 0.9%; TRPV1 PAM: -3

The list itself (from the top)
What do the screens show for `COC(=O)C(Cc1c[nH]c2ccccc12)NC(=O)COc1ccc(Cl)cc1Cl` (stereo unspecified)?
ClpP mod: -1.0%; TRPV1 PAM: 0

Results for COC(=O)c1ccccc1NC(=O)CSc1nc2sc3c(c2c(=O)[nH]1)CCCC3 ?
ClpP mod: -1.1%; TRPV1 PAM: 12

How did COc1ccccc1N1CCN(CC(O)COc2ccc(C)cc2C(C)(C)C)CC1 (stereo unspecified) do in these assays?
ClpP mod: 0.9%; TRPV1 PAM: -3

Results for COc1ccc(NC(=O)CCCS(=O)(=O)c2nc(-c3ccc(OC)c(OC)c3)cc(C(F)(F)F)n2)cc1OC ?
ClpP mod: -3.0%; TRPV1 PAM: 0

Results for Cc1ccc(-n2nc3c(=O)n(CCCC(=O)NCCc4ccccc4Cl)nc(C)c3c2C)cc1 ?
ClpP mod: -6.0%; TRPV1 PAM: 8

How did Cc1ccc(C)c(-c2csc(-c3c(N)c(C(=O)c4ccc5c(c4)OCO5)n4ccccc34)n2)c1 do in these assays?
ClpP mod: -0.1%; TRPV1 PAM: -1

What do the screens show for `CCOc1ccc(C2=C(C(C)=O)Sc3nnc(C)n3N2C(C)=O)cc1`?
ClpP mod: 0.1%; TRPV1 PAM: 7

What do the screens show for `COc1ccc(C2C=C(c3ccc(Br)cc3)Nc3nnnn32)c(OC)c1` (stereo unspecified)?
ClpP mod: -12%; TRPV1 PAM: 9

How did CC1CCN(c2ccc(-c3nc(-c4ccccc4)no3)cc2[N+](=O)[O-])CC1 do in these assays?
ClpP mod: -0.9%; TRPV1 PAM: 9

How did CCc1ccccc1Nc1nn2c(=O)c3ccc(C(=O)NCCCOC(C)C)cc3nc2s1 do in these assays?
ClpP mod: -7.5%; TRPV1 PAM: 5

What do the screens show for `Cc1cccc(NC(=O)c2c(NC(=O)c3ccccc3)sc3c2CCCC3)c1`?
ClpP mod: -3.5%; TRPV1 PAM: 0

What do the screens show for `CCN(CC)S(=O)(=O)c1ccc2c(c1)N(CC(=O)N1CCN(c3ccc(F)cc3)CC1)C(=O)CO2`?
ClpP mod: 1.1%; TRPV1 PAM: 7

How did O=C(Cn1c(=O)n(Cc2ccc(C(=O)NCc3ccc4c(c3)OCO4)cc2)c(=O)c2ccccc21)Nc1ccc(F)cc1F do in these assays?
ClpP mod: 39%; TRPV1 PAM: 7

Results for Cc1ccc(-n2nc(C)c(C(=O)O)c2-n2cccc2)cc1 ?
ClpP mod: 0.0%; TRPV1 PAM: 22

How did O=C(Cn1c(=O)n(Cc2ccc(F)cc2)c(=O)c2sc3ccccc3c21)Nc1ccc(F)cc1F do in these assays?
ClpP mod: -29%; TRPV1 PAM: 8

What do the screens show for `CC(C)c1ccc(NS(=O)(=O)c2ccc3[nH]cc(C(=O)NCCc4ccccc4)c(=O)c3c2)cc1`?
ClpP mod: -1.5%; TRPV1 PAM: 3

How did Cc1ccc(NCc2cc3cc4c(cc3n(CC(=O)Nc3ccc(C)cc3)c2=O)OCCO4)cc1 do in these assays?
ClpP mod: 4.3%; TRPV1 PAM: 29

How did CCN(c1ccccc1)S(=O)(=O)c1c(-c2ccc(C)cc2)csc1C(=O)OC do in these assays?
ClpP mod: -2.0%; TRPV1 PAM: -13

What do the screens show for `CSc1ccccc1NC(=O)CCS(=O)(=O)c1nc(-c2ccc3c(c2)OCO3)cc(C(F)(F)F)n1`?
ClpP mod: inconclusive; TRPV1 PAM: -4

What do the screens show for `CCOC(=O)c1ccc(NC(=O)CSc2nc(-c3cccs3)cc(C(F)(F)F)c2C#N)cc1`?
ClpP mod: 4.6%&-15%; TRPV1 PAM: -7

How did COc1ccc(S(=O)(=O)N2CCN(c3ccccc3OC)CC2)cc1-c1noc(C)n1 do in these assays?
ClpP mod: 2.2%; TRPV1 PAM: -3

What do the screens show for `COc1ccc(C(=O)NC(c2ccccc2Cl)c2cc(Cl)c3cccnc3c2O)cc1` (stereo unspecified)?
ClpP mod: 1.8%; TRPV1 PAM: 5

What do the screens show for `CC(=O)N1CCOc2cc(S(=O)(=O)NCc3ccccc3Cl)c(Cl)cc21`?
ClpP mod: 1.7%; TRPV1 PAM: -22

Results for CCc1ccc(NC(=O)C2CCC(CNS(=O)(=O)c3ccc4c(c3)CC(C)N4C(C)=O)CC2)cc1 (stereo unspecified) ?
ClpP mod: -1.3%; TRPV1 PAM: 3

What do the screens show for `Cc1ccc(-c2c(C(=O)NCCc3ccccc3)oc(=O)c3ccccc23)cc1`?
ClpP mod: -0.7%; TRPV1 PAM: -9

What do the screens show for `CC(=O)N1CCc2c(sc(NC(=O)CSc3ccccc3)c2-c2nc3ccccc3s2)C1`?
ClpP mod: -14%; TRPV1 PAM: 1

What do the screens show for `O=C1CC(c2ccccc2)Cc2[nH]c(=O)c(-c3nc(-c4ccc(F)cc4)cs3)cc21` (stereo unspecified)?
ClpP mod: -7.5%; TRPV1 PAM: -20

What do the screens show for `CCCS(=O)(=O)c1ncc(Cl)c(C(=O)N(Cc2ccccc2)Cc2ccco2)n1`?
ClpP mod: 1.5%; TRPV1 PAM: -7

How did Cc1ccc(-c2nc3c(c(SCC(=O)Nc4cccc(C(=O)O)c4)n2)Cc2cccc(C)c2O3)cc1 do in these assays?
ClpP mod: -2.8%&-11%; TRPV1 PAM: -2

What do the screens show for `Cc1ccc2nc3sc(C(=O)Nc4ccc(F)cc4)cc3cc2c1`?
ClpP mod: -8.0%&-0.9%; TRPV1 PAM: 12

Fetched one by one from the list above, two records:
What do the screens show for `CSc1ccccc1NC(=O)CCS(=O)(=O)c1nc(-c2ccc3c(c2)OCO3)cc(C(F)(F)F)n1`?
ClpP mod: inconclusive; TRPV1 PAM: -4

Results for CCc1ccc(NC(=O)C2CCC(CNS(=O)(=O)c3ccc4c(c3)CC(C)N4C(C)=O)CC2)cc1 (stereo unspecified) ?
ClpP mod: -1.3%; TRPV1 PAM: 3

Later entries
How did COc1ccc(Cl)cc1NC(=O)CSc1nc(=O)[nH]c2c1CCC2 do in these assays?
ClpP mod: -0.8%; TRPV1 PAM: 0

How did CS(=O)(=O)NCc1ccccc1Br do in these assays?
ClpP mod: -3.1%; TRPV1 PAM: -15

How did COC(=O)c1cnn(-c2ccc(C(=O)Nc3ccc(C(C)=O)cc3)cc2)c1N do in these assays?
ClpP mod: -0.2%; TRPV1 PAM: -2

What do the screens show for `CCOC(=O)c1ccc(N2C(=O)c3n[nH]c(-c4cccs4)c3C2c2ccc(CC)cc2)cc1` (stereo unspecified)?
ClpP mod: -23%; TRPV1 PAM: 3

What do the screens show for `CCN(Cc1ccccc1)c1nc2c(S(=O)(=O)c3ccccc3)nnn2c2ccc(Cl)cc12`?
ClpP mod: 4.4%; TRPV1 PAM: -3

Results for COc1cccc(CN2C(=O)c3ccccc3Sc3ccc(C(=O)NCCc4ccc(Cl)cc4)cc32)c1 ?
ClpP mod: -0.4%; TRPV1 PAM: 5

Results for Cc1nnc(SCC(=O)NCc2ccccc2F)c2nn(-c3ccc(Cl)cc3)c(C)c12 ?
ClpP mod: -8.9%; TRPV1 PAM: inconclusive

How did N#Cc1cccc(NC(=O)c2ccc3c(c2)N(Cc2cccc(Cl)c2)C(=O)c2ccccc2S3(=O)=O)c1 do in these assays?
ClpP mod: inconclusive; TRPV1 PAM: 11

How did CCn1c(-c2ccc(S(=O)(=O)N3CCOCC3)cc2)csc1=Nc1ccc(C)c(Cl)c1 do in these assays?
ClpP mod: -1.0%; TRPV1 PAM: 5

What do the screens show for `O=C(NCCc1ccc(Cl)cc1)c1ccc(Cn2c(=O)[nH]c3ccccc3c2=O)cc1`?
ClpP mod: -0.9%; TRPV1 PAM: 10

What do the screens show for `COc1ccc(S(=O)(=O)N2CCN(c3ccccc3)CC2)cc1-c1noc(C)n1`?
ClpP mod: 1.8%; TRPV1 PAM: -9

Results for COc1ccc(-c2nc3c(c(SCC(=O)Nc4ccc(C(=O)O)cc4)n2)Cc2ccccc2O3)cc1 ?
ClpP mod: -3.6%; TRPV1 PAM: 16

What do the screens show for `Cc1cc(C)cc(NC(=O)c2sc3nc4n(c(=O)c3c2C)N=C(c2ccccc2)CS4)c1`?
ClpP mod: -4.2%; TRPV1 PAM: -9

What do the screens show for `CC1(C(=O)NS(=O)(=O)c2ccc(F)cc2F)CCN1C(=O)Cc1cccc2ccccc12` (stereo unspecified)?
CtBP-E1A inh: 8; ClpP mod: 0.0%

Results for Cc1ccc(F)cc1-c1nc(NC(C)C)nc2cc(-c3ccccc3)sc12 ?
CtBP-E1A inh: 30; ClpP mod: inconclusive

How did Cc1noc(C)c1S(=O)(=O)NC(=O)C1(C)CCN1C(=O)c1ccccc1CCc1ccccc1 (stereo unspecified) do in these assays?
CtBP-E1A inh: 10; ClpP mod: -0.2%

What do the screens show for `CC(=O)c1cccc(-c2ccnc3c2CC(C(=O)Nc2ccc(F)c(Cl)c2)O3)c1` (stereo unspecified)?
CtBP-E1A inh: inconclusive; ClpP mod: 1.0%

Results for CCCCn1nnnc1C(c1cc2ccccc2o1)N1CCN(c2c(C)cccc2C)CC1 (stereo unspecified) ?
CtBP-E1A inh: -1; ClpP mod: -2.0%

Results for COC(=O)CCCn1cc(CN2CC(N3CCN(Cc4cccc(C)c4)CC3)CS2(=O)=O)nn1 (stereo unspecified) ?
CtBP-E1A inh: -4; ClpP mod: 1.4%

How did Nc1nc2ccccc2cc1C(=O)NCc1cccs1 do in these assays?
CtBP-E1A inh: -14; ClpP mod: 3.6%

How did O=C(NCc1ccccn1)[C@@H]1CCCN1C(=O)[C@@H]1CCCN1C(=O)c1ccccc1 do in these assays?
CtBP-E1A inh: 1; ClpP mod: 2.2%

How did CCO/C(C)=N/Oc1cc(OC)cc(OC)c1 do in these assays?
CtBP-E1A inh: 40; ClpP mod: 0.7%

Results for CCCCNC(=O)C[C@@H]1C[C@@]2(C(=O)OC)CCCCC=C2N(Cc2ccc3c(c2)OCO3)C1=O ?
CtBP-E1A inh: 0; ClpP mod: 3.4%

How did C#CCNC(=O)C[C@@H]1C[C@@]2(C(=O)OCC)CCC=C2N(Cc2ccco2)C1=O do in these assays?
CtBP-E1A inh: 3; ClpP mod: 2.2%

How did CC1(C(=O)NS(=O)(=O)c2ccccc2)CCN1C(=O)Cc1ccccc1 (stereo unspecified) do in these assays?
CtBP-E1A inh: 0; ClpP mod: -1.5%

How did NS(=O)(=O)c1ccc(CCNc2ccn3nc(-c4cccc(C(F)(F)F)c4)cc3n2)cc1 do in these assays?
CtBP-E1A inh: 4; ClpP mod: 3.8%

Results for CSc1ccc(OC2(C)CCN(Cc3ccc(C(C)C)cc3)C2)cc1 (stereo unspecified) ?
CtBP-E1A inh: -3; ClpP mod: -0.3%

How did O=S1(=O)CC(N2CCCCC2)CN1Cc1ccc(F)cc1 (stereo unspecified) do in these assays?
CtBP-E1A inh: 4; ClpP mod: 1.1%

What do the screens show for `Cc1ccc(CN2C(=O)CN(S(C)(=O)=O)CC2(C)C(=O)NC(C)C)cc1` (stereo unspecified)?
CtBP-E1A inh: 2; ClpP mod: -1.6%

Results for CC1(Cc2ccccc2C#N)C(=O)Nc2ccc(-c3ccc4[nH]ccc4c3)cc21 (stereo unspecified) ?
CtBP-E1A inh: -9; ClpP mod: -1.4%

How did NC(=O)c1csc(-c2ccc(CO)o2)n1 do in these assays?
CtBP-E1A inh: 1; ClpP mod: -30%

What do the screens show for `CCCc1nc2ccc(C(=O)OC)cn2c1Cc1ccc(C)cc1`?
CtBP-E1A inh: -4; ClpP mod: -22%

Results for OC(c1cccc(F)c1)c1ncc(-c2ccc(C(F)(F)F)cc2)[nH]1 (stereo unspecified) ?
CtBP-E1A inh: -8; ClpP mod: -3.1%

How did COc1ccc(CC(N)c2csc(NC(=O)NCc3ccccc3)n2)cc1 (stereo unspecified) do in these assays?
CtBP-E1A inh: -22; ClpP mod: -1.3%

Results for CCOc1ccc2nc(S(=O)(=O)NC(=O)C3(C)CCN3C(=O)c3c(C)noc3C)sc2c1 (stereo unspecified) ?
CtBP-E1A inh: 5; ClpP mod: inconclusive

How did O=C(C(=NNc1ccccc1)C(=S)Nc1ccccc1)c1ccccc1 do in these assays?
CtBP-E1A inh: inconclusive; ClpP mod: -0.2%

How did CC(C)C[C@@H]1COc2cc(N3CCSCC3)ccc2S(=O)(=O)N1 do in these assays?
CtBP-E1A inh: 5; ClpP mod: -7.9%

Assay outcomes deposited in PubChem by National Center for Advancing Translational Sciences (NCATS).
